From PubChem
PABP polyA inh: blocks human PABP binding to poly(A) RNA | fluorescence polarization | P11940 | 290,000 compounds, 1% hits | AID 2014 | inhibition, % at 35 µM;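 active = 50% or more with normal probe brightness, or confirmed in later tests; about a fifth of its hits are not listed in these tables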;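 also: calls also rest on retests at 20 µM and on dose response follow-up; controls were probe without protein and protein plus probe with vehicle; some compounds called inactive have numbers as strong as hits; many hits fall short of the cut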
Target sequence (P11940 whole entry, looked up): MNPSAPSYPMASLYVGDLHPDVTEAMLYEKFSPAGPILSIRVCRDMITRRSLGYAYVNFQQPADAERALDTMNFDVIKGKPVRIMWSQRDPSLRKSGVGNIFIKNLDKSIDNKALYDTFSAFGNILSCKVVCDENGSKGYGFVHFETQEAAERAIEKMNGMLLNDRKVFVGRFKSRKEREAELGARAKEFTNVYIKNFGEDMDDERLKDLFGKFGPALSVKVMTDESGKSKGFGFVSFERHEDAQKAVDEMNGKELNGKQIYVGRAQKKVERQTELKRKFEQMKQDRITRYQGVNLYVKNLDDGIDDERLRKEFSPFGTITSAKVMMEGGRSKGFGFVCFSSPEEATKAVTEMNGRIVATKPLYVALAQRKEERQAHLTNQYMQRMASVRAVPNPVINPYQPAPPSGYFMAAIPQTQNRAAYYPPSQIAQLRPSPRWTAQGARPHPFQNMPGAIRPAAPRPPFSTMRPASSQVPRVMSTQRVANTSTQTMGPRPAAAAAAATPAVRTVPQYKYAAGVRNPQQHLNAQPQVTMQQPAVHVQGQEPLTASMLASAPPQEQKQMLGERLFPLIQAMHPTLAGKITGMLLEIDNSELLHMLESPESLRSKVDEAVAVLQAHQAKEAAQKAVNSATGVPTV
eIF4H inh: inhibitors of RNA binding by human eIF4H | 290,000 compounds, 0.94% hits | inhibition, % at 35 µM | eIF4H fluorescence polarization binding assay | AID 2012;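 active = 50% or more with normal probe brightness, or confirmed in later tests; about a fifth of its hits are not listed in these tables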;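 also: calls also rest on retests at 20 µM and on dose response follow-up; 0% = protein and probe with vehicle and 100% = probe without protein; strong numbers were not always called active; many hits fall short of the cut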
MT1-MMP act inh: MT1-MMP (human) activation inhibition; HT1080 RFP-PRO-GFP cells, GFP/RFP ratio fluorescence, overnight; percent of plate control window, DMSO zero; GFP/RFP ratio change, % at 20 µM; AID 651647; 360,000 compounds, 0.061% hits; P50281;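 active = GFP/RFP ratio change of at least 30% with cell ATP level not reduced by more than half and red fluorescence within 50% of control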; also: strong numbers were not always called active
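Assay system: HT1080 RFP-PRO-GFP cells. Benchmarks: DMSO vehicle wells and RFP-L50D-GFP reporter cell wells. Times: overnight cell settling, then overnight compound exposure, 37 °C, 5% CO2. Compound: 20 µM single dose, 1% DMSO. Read-out basis: GFP/RFP fluorescence ratio.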
Rce1 inh: blocks yeast Ras-converting enzyme | yeast membranes, quenched prenylated peptide cleavage fluorescence | calls only | 290,000 compounds, 0.27% hits | AID 2563;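 active = fall in fluorescence gain of 50% or more versus controls, with final raw signal at or below 3038400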;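 also: plate controls were neutral control wells for no effect and wells lacking membranes for full effect; tested at 10 µM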
Target sequence (Q03530 whole entry, looked up): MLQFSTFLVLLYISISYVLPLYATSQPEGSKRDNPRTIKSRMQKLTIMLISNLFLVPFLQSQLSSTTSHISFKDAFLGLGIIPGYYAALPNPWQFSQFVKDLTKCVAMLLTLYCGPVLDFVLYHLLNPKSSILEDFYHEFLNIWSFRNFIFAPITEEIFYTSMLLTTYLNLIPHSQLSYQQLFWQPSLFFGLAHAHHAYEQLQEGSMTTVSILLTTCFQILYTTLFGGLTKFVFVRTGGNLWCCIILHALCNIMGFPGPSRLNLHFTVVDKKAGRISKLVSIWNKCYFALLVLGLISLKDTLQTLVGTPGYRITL
UUG fidelity: alters start codon recognition fidelity in yeast. S. cerevisiae UUG-firefly luciferase reporter, luminescence/redox ratio. activity score, % at 18.7 µM. 350,000 compounds, 0.13% hits;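 active = replicate mean at a twofold rise or more, about +100% in these data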;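 also: firefly luciferase made from a UUG start codon reports start codon fidelity; reporter light over untreated wells divided by growth signal over untreated wells; some hits fall short of that in this replicate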
CSC inhib: cancer stem cell inhibition; inhibition, % at 7.5 µM; cancer stem cell-like cells viability, luminescence; 300,000 compounds, 1.1% hits;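 active = mean at 75% or more and at least half the replicates too; tested in HMLE shEcad cells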;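 also: 0% = median of negative and 100% = median of positive control wells; the first replicate is given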
HIV Env fusion: HIV envelope-mediated fusion inhibition | 360,000 compounds, 1.1% hits | HeLa-JRFL Env/CEM21 cell fusion, luciferase | inhibition, % at 12.3 µM | AID 651610;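 active = mean replicate inhibition score of at least 50 and every replicate individually at or above 50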;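 also: 0% = plate neutral controls and 100% = maraviroc near 300 nM; one replicate is shown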
eIF4H inh retest: also measured in eIF4H inh; calls as there; inhibition, %; compound at 20 µM; confirmation average;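 mean of two retest wells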
PABP polyA inh retest: recorded beside PABP polyA inh, whose call it bears; inhibition, %; compound at 20 µM; confirmation repeats;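 mean of two retest wells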
MT1-MMP act inh RFP: further read-out of MT1-MMP act inh, marked with its call; RFP signal change, %; measured here: RFP expression control read;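 0 = vehicle wells; hits needed this value within 50% of zero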
* = called active by the depositor; i = inactive; nt = no result given.

SMILES | PABP polyA inh | eIF4H inh | MT1-MMP act inh | MT1-MMP act inh RFP | Rce1 inh | UUG fidelity | CSC inhib | HIV Env fusion | others
COc1ccc(S(=O)(=O)n2cnc3ccccc32)cc1OC | 12 | 8 | -1 | 0 | i | -6 | -17 | -96
NC(=O)c1ccc(NC(=O)CCc2nc3ccccc3s2)cc1 | 0 | 45 | -12 | 4 | nt | nt | -1 | -7
O=C(Nc1ccc(F)cc1F)Nc1ccc(F)cc1F | 2 | -2 | -7 | -13 | i | nt | -2 | 8
CC(NC(=O)/C=C/c1ccc(Br)cc1)c1ccc(Cl)cc1 (stereo not drawn) | 2 | -3 | 1 | -3 | nt | -60 | 10 | -7
O=[N+]([O-])c1nn(-c2ccc3c(c2)OCCO3)n(O)c1=NC1CCCCCC1 | -5 | 0 | 4 | -3 | i | -13 | nt | -8
Nc1ncccc1OCc1cccc(C(F)(F)F)c1 | 9 | 7 | -1 | -10 | i | nt | 2 | 0
O=C(CN1C(=O)NC2(CCCCC2)C1=O)N1CCN(S(=O)(=O)c2cccc([N+](=O)[O-])c2)CC1 | nt | nt | -1 | 3 | nt | -14 | -4 | nt
Cc1cccc(NC(=O)NNC(=O)c2ccc(C)c([N+](=O)[O-])c2)c1 | -10 | -8 | -2 | 2 | i | -17 | 3 | 1
COc1ccc(NS(=O)(=O)c2cc(NC(=O)CCNC(C)=O)ccc2N2CCOCC2)cc1 | nt | nt | 3 | -1 | i | nt | -4 | -11
O=S(=O)(Nc1cc(F)ccc1F)c1cccc2nonc12 | -2 | 1 | -6 | 1 | i | -13 | -3 | -3
Cc1nccn1CCc1n[nH]c(=S)n1Cc1ccccc1 | 4 | 1 | -1 | 3 | i | nt | -9 | nt
COc1cccc(-c2c(-c3cc(OC)cc(OC)c3)n(C)c3ccc(-c4cnc(OC)nc4)cc23)c1 | nt | nt | -5 | -9 | nt | -14 | 38 | 21
CC(=O)N1CCOc2ccc(S(=O)(=O)N3CCC(C(=O)Nc4ccccc4F)CC3)cc21 | -2 | -7 | 3 | 0 | i | 10 | -9 | -6
CN(C(=O)CSc1nnc(-c2ccc(F)cc2)n1C)C1CCS(=O)(=O)C1 (stereo not drawn) | nt | nt | -3 | 1 | nt | -24 | -10 | nt
Cc1c(C(=O)N2CCCc3ccccc32)sc2nc(-c3ccccc3)cn12 | 1 | 6 | -2 | -20 | i | -2 | 37 | -11
CC(=O)N1CCN(c2nc(-c3cccs3)nc3ccccc23)CC1 | 1 | -10 | -6 | -6 | i | nt | 17 | 8
Cc1cccc(NCc2ccccc2O)n1 | -8 | -3 | -8 | 1 | i | -28 | 0 | nt
Cc1ccc(C)c(NC(=O)C2C3CCCC2C3c2ccccc2)c1 (stereo not drawn) | -6 | 1 | -7 | 1 | i | -17 | -1 | nt
Cc1occc1-c1nnc(SCC(=O)NCC2CCCO2)n1C (stereo not drawn) | 12 | -1 | -2 | -1 | i | -4 | 3 | -5
O=C(Nc1cc(Br)ccc1O)c1cc(-c2ccc3c(c2)OCO3)on1 | -11 | -8 | 6 | 4 | i | 1 | -1 | -37
CC(C)NC(=O)CSc1nnc(CNC(=O)OC(C)(C)C)n1C | -3 | 4 | -2 | 1 | i | nt | -8 | 10
COC(=O)C(C)Nc1cccc(Br)c1 (stereo not drawn) | -4 | -9 | 0 | 6 | i | -29 | -2 | 7
O=C(COC(=O)c1ccc(O)cc1O)Nc1nnc(-c2ccccc2)o1 | nt | nt | -7 | 2 | i | -9 | -11 | -17
Cc1nc(C(C)NC(=O)CCc2nnc(CCCc3ccccc3)o2)c(C)s1 (stereo not drawn) | -2 | -2 | 2 | 0 | i | -12 | -11 | -44
Cc1ccc(F)cc1NCC(=O)Nc1ccc(Br)cc1 | 11 | -6 | 4 | 0 | i | -16 | -1 | -25
CC12CCC(C(=O)N(CSC(=S)N/N=C\c3ccccc3O)C1=O)C2(C)C (stereo not drawn) | -2 | 9 | -1 | 1 | i | -17 | nt | nt
CCOc1ccc(CCNC(=O)COC(=O)c2ccc(F)c(S(=O)(=O)N3CCOCC3)c2)cc1OCC | nt | nt | 2 | 2 | i | 10 | nt | -13
O=CN1CCN(S(=O)(=O)c2ccc(Cl)c(C(=O)O)c2)CC1 | -16 | 0 | 4 | 2 | i | nt | 2 | 2
Cc1ccsc1/C=N/N1CCN(c2ccccc2)CC1 | 11 | -3 | 4 | -1 | i | -9 | -4 | nt
CC(C)N(C(=O)COC(=O)c1ccc(Cl)nc1)C(C)C | -5 | 1 | 2 | 3 | i | nt | 4 | 6
O=S(=O)(Nc1nccs1)c1ccc(NCc2cc(Br)cc(Br)c2O)cc1 | 37 | -6 | 6 | 5 | i | -21 | 3 | -38
COc1ccccc1C(=O)NC(=O)Cn1nc(C)c([N+](=O)[O-])c1C | nt | nt | 2 | -2 | i | nt | -12 | -9
Cc1cc(C(=O)NC(C)c2ccncc2)no1 (stereo not drawn) | -4 | -5 | 0 | 5 | i | nt | -3 | nt
N#CCCn1cc(/C=C2\NC(=S)N(c3ccccc3)C2=O)c(-c2ccc(F)cc2)n1 | 4 | -2 | nt | nt | i | -5 | -10 | 9
Cc1nn(-c2ccccc2)c(C)c1NC(=O)COC(=O)[C@@H](NC(=O)c1ccccc1)C(C)C | nt | nt | -4 | -1 | i | -6 | 19 | -3
CCOc1cc(/C=N/NC(=O)C(=O)NC)cc(Br)c1O | 6 | 0 | 1 | 5 | i | -22 | 7 | 3
COc1ccc(C2c3ccc4ccccc4c3Oc3ncn(Cc4ccco4)c(=N)c32)cc1OC (stereo not drawn) | -5 | -18 | -8 | -5 | i | -20 | 80* | -79
Cc1ccc(CNC(=O)CCNS(=O)(=O)c2ccc3c(c2)c(=O)n(C)c(=O)n3C)cc1 | 4 | -5 | -6 | 0 | i | -8 | -7 | 6
O=C(CSc1ncnc2nc[nH]c12)NCCc1ccccc1 | -1 | -6 | -2 | 1 | i | -17 | 8 | nt
O=C(CSc1n[nH]c(-c2ccccc2O)n1)NC1CCCCC1 | -7 | -4 | 1 | -11 | i | -14 | 31 | 5

Reprinted at random: four entries already listed
SMILES | PABP polyA inh | eIF4H inh | MT1-MMP act inh | MT1-MMP act inh RFP | Rce1 inh | UUG fidelity | CSC inhib | HIV Env fusion | others
CC(C)NC(=O)CSc1nnc(CNC(=O)OC(C)(C)C)n1C | -3 | 4 | -2 | 1 | i | nt | -8 | 10
Cc1nn(-c2ccccc2)c(C)c1NC(=O)COC(=O)[C@@H](NC(=O)c1ccccc1)C(C)C | nt | nt | -4 | -1 | i | -6 | 19 | -3
Cc1ccsc1/C=N/N1CCN(c2ccccc2)CC1 | 11 | -3 | 4 | -1 | i | -9 | -4 | nt
O=C(COC(=O)c1ccc(O)cc1O)Nc1nnc(-c2ccccc2)o1 | nt | nt | -7 | 2 | i | -9 | -11 | -17

Later entries:
SMILES | PABP polyA inh | eIF4H inh | MT1-MMP act inh | MT1-MMP act inh RFP | Rce1 inh | UUG fidelity | CSC inhib | HIV Env fusion | others
O=C(CCN1C(=O)S/C(=C\c2ccc(Cl)cc2)C1=O)Nc1ccc(C(=O)O)cc1 | -11 | -10 | -3 | -3 | i | -19 | -10 | -15
COc1ccc(/C=N/Nc2ccc(C(=O)O)cc2)c(OC)c1OC | 4 | 3 | 7 | 1 | i | 1 | 6 | -9
O=c1[nH]c(=O)n(Cc2ccco2)c2c1C(C(F)(F)F)(C(F)(F)F)N=C(c1ccc(F)cc1)N2 | 7 | -7 | 2 | -9 | i | -10 | 31 | -10
O=C(CCc1nc2ccccc2[nH]1)N1CCN(C(=O)c2ccco2)CC1 | 4 | -1 | 1 | 10 | i | -13 | -4 | 6
O=C(NCCCN1CCOCC1)c1ccc(Sc2ccc(Br)cc2)c([N+](=O)[O-])c1 | -3 | 4 | 1 | -3 | i | -13 | 76* | -9
O=C(NCc1ccccc1Cl)c1ccc2c(c1)SC1=NS(=O)(=O)CCN12 | 7 | -8 | -1 | -5 | i | nt | 2 | 3
Cc1cccc2c1N(CCOc1ccccc1)C(=O)C2=O | 0 | -4 | -2 | 8 | i | nt | 9 | 30
Cc1cc(C)c(NC(=O)c2ccc3c(c2)NC(=O)C(C)S3)c(C)c1 (stereo not drawn) | nt | nt | 8 | -2 | nt | -17 | nt | 2
CCOC(=O)c1[nH]c2ccccc2c1N=C(C)N(CC)CC | 5 | -9 | -4 | 8 | i | 9 | 3 | -1
COc1cccc(CCc2nnc(CCC(=O)N3CCCC3c3nccs3)o2)c1 (stereo not drawn) | -6 | 3 | 7 | -1 | i | nt | 10 | 16
Cc1ccn2c(=O)c(C(=O)NCCCN3CCCC3=O)c(O)nc2c1 | 14 | -3 | 0 | 4 | i | -19 | -14 | 1
COC(=O)c1cc(OC)c(OC)cc1NC(=O)CCC1CCCC1 | -2 | 4 | 2 | -1 | i | 0 | -15 | nt
COc1ccc(N(CC(=O)NC2CCCC2)C(=O)CCC(=O)Nc2cc(C)on2)c(OC)c1 | 58 | -1 | 2 | 1 | i | 13 | -7 | nt | eIF4H inh retest=-2;PABP polyA inh retest=5
CCn1c(=O)[nH]c2ccccc2c1=O | -7 | -4 | 3 | 9 | i | -39 | -6 | i
CCOC(=O)N1CCC(NC2CCCCCCC2)CC1 | -21 | 0 | -3 | 5 | i | -16 | 16 | -48
CCOC(=O)C1C(c2ccc(O)cc2)NC(=O)NC1(O)C(F)(F)F (stereo not drawn) | 2 | 0 | -2 | 1 | i | -17 | -7 | 0
Cc1nc(C(F)(F)F)ccc1C(=O)N1CCC1(C)C(=O)NS(=O)(=O)c1ccc2c(c1)CCO2 (stereo not drawn) | nt | nt | 3 | 3 | nt | -12 | nt | -21
COc1cc2c(cc1NC(=O)COC(=O)c1ccc(C(C)(C)C)cc1)oc1ccccc12 | -11 | -14 | 6 | 4 | i | nt | nt | -3
Cc1oc2ccc(OC(=O)COc3c(F)c(F)c(F)c(F)c3F)cc2c1C(=O)OC(C)C | -8 | -8 | 1 | -3 | i | nt | -6 | 5
CCOC(=O)C1=C(C)Nc2ncnn2C1c1c[nH]c2ccccc12 (stereo not drawn) | -4 | -10 | -11 | 2 | i | -28 | -20 | 3
CC(C)c1cc(C(=O)O)c2ccccc2n1 | -2 | -10 | 5 | 7 | i | 2 | 6 | 3
CN(C(=O)c1ccccc1C(=O)OCC(=O)NCc1cccs1)C1CCCCC1 | -8 | -7 | 0 | 6 | i | 8 | -9 | 19
CCOc1ccc(/C=N/NC(=O)c2nnn(-c3nonc3N)c2CN2CCC(C)CC2)cc1 | 9 | 6 | -4 | -6 | i | -13 | 8 | 8
CCc1ccc2c(COn3nnc4ccc(S(=O)(=O)N(C)C)cc43)cc(=O)oc2c1 | 16 | 0 | 5 | 3 | i | -6 | 12 | nt
CCN(CC)c1ccc(C(NC(C)=O)NC(C)=O)cc1 | -10 | 8 | 0 | 1 | i | -20 | -10 | nt
CC(C)Cn1c(SCC(=O)NCc2ccc(Cl)cc2)nnc1-c1cccc(S(=O)(=O)N2CCOCC2)c1 | 3 | 1 | 4 | -1 | i | 2 | nt | nt
CCCCCn1c(CN(C)Cc2ccccc2)nc2c1c(=O)n(C)c(=O)n2C | 3 | -10 | 0 | -13 | i | -11 | nt | 51
CCOc1ccc(N2C(=O)C3C(c4ccccc4)=NN(c4ccccc4)C3C2=O)cc1 (stereo not drawn) | 2 | -1 | -8 | 0 | i | -4 | -1 | 3
O=C1C(C=NC2CC2)=C(O)c2ccccc21 | 4 | 2 | -3 | 7 | i | -30 | -6 | nt
CCC(CC)NC(=O)COc1ccc(OC)cc1C=O | 5 | -15 | -1 | 2 | i | nt | -14 | 6
O=C(Nc1ccccc1)Nc1ccccc1C(=O)NCc1ccccc1 | 0 | -1 | 7 | -3 | i | -13 | 12 | -42

The list is partial; the hit share may differ from the screen's.
